Assay outcomes: PubChem, SRMLSC
HSV augment = increases HSV replication in cells | HSV replication augmentation in cells, fold increase | maximum fold increase | actives 0.005% (n = 220,000);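 active = peak rise of 1.5-fold or more in the series; tested in PC3 cells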;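 note: first round at 10 µM; read as green reporter fluorescence; hits show the peak of a series up to 25 µM; 1 = signal of infected wells without compound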
HSV augment primary fold = also measured in HSV augment; calls as there; fold increase; compound at 10 µM; measured here: primary screen fold increase 10 uM; tested in PC3 cells;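 GFP signal in the first replicate; 1 = infected wells without compound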
* hit, by the source's call; i = inactive. This is a subset; count on the stated rates, not on these rows.

SMILES | HSV augment | HSV augment primary fold
NCCN1CCN(CC(=O)N2c3ccccc3C(=O)Nc3cccnc32)CC1 | i | 1.25
O=C(O)Cc1c[nH]c2ccccc12 | i | 1.12
COC(=O)C1=C(C)NC(C)=C(C(=O)OCC(C)C)C1c1ccccc1[N+](=O)[O-] (centres undefined) | i | 0.95
CC(C)(C)C(=O)NCCc1nc(-c2ccccc2)no1 | i | 0.95
COc1ccccc1CN1[C@@H](CC(=O)O)c2ccccc2S1(=O)=O | i | 0.87
OCCNc1nc(Nc2ccccc2Cl)nc(N2CCCC2)n1 | i | 0.73
O=C(NCc1ccco1)c1ccc2c(c1)S(=O)(=O)c1ccccc1C2=O | i | 0.97
OCC[C@H]1C[C@@H](O)[C@H](O)[C@]2(CCCO2)O1 | i | 0.76
CCOC(=O)C1=C(C)N(CCCC(=O)O)C(=O)NC1c1ccccc1OS(=O)(=O)c1ccccc1[N+](=O)[O-] (centres undefined) | i | 0.83
COCCNC(=O)C1Nc2ccc(C(F)(F)F)cc2C2C=CCC12 (centres undefined) | i | 0.93
OC[C@@H](O)[C@@H](O[C@@H]1O[C@H](CO)[C@H](O)[C@H](O)[C@H]1O)[C@H](O)[C@@H](O)CO | i | 0.98
Cc1c(-n2cc(C(=O)O)c(=O)c3cc(F)c(N4CCCC4)c(F)c32)c(=O)n(-c2ccccc2)n1C | i | 0.92
O=C(NCCNCCO)C1(C(F)(F)F)C/C(=C\CCO)CCCO1 (centres undefined) | i | 0.94
O=C1N[C@@H](Cc2ccccc2)C(=O)N2[C@H]3Nc4ccccc4[C@@]3([C@]34C[C@H]5C(=O)N[C@@H](Cc6ccccc6)C(=O)N5[C@H]3Nc3ccccc34)C[C@@H]12 | i | 0.81
C#Cc1ccc([C@H]2C=C(C(=O)NCc3ccccc3)O[C@@H](OCc3ccc(CO)cc3)C2)cc1 | i | 1.12
Nc1nc(OCc2ccccc2)c2[nH]cnc2n1 | i | 0.69
CCN(CC)S(=O)(=O)c1cccc(-c2nnc(SCC(=O)c3cc(C)n(C4CC4)c3C)o2)c1 | i | 0.94
Cn1ccnc1-c1nnn(-c2ccc(Cl)c(Cl)c2)n1 | i | 1.21
CN(C)CCNC(=O)c1onc(CSc2ccncc2)c1C(=O)NCCN(C)C | i | 1.03
COc1ccc(COC[C@H](C)[C@H](O)[C@@H](C)[C@H]2OC(=O)[C@@H]2C)cc1 | i | 0.55
OCCNc1nc(Nc2ccccc2OC(F)(F)F)nc(N2CCCC2)n1 | i | 0.96
NC1C=CC=C(C(=O)O)C1 (centres undefined) | i | 0.84
O=C(NCc1cccs1)c1cc(-c2ccccc2)nn1CC1CC(c2cccnc2)=NO1 (centres undefined) | i | 1.1
CC(CCc1ccc(O)cc1)NCCc1ccc(O)c(O)c1 (centres undefined) | i | 0.86
O=C(NCC1CC1)c1cc(-c2ccccc2)nn1CC1CC(c2cccc([N+](=O)[O-])c2)=NO1 (centres undefined) | i | 0.93
COc1cc(C(=O)Nc2ccc(NC(=O)C(C)C)nc2)cc(OC)c1OC | i | 0.993
CCC(=O)OC1(C)C(=O)C=C2C=C(C3CC3)OC=C2C1=O (centres undefined) | i | 0.92
Cn1c2c(c3ccccc31)CCN=C2c1ccccc1 | i | 0.9
CCOc1ccc2nc(NC(=O)CSc3nnc(-c4ccncc4)n3CC3CCCO3)sc2c1 (centres undefined) | i | 0.89
CCOC(=O)C1Nc2c(F)cc(C)cc2C2c3ccccc3CC12 (centres undefined) | i | 1.07
CCOC(=O)C1=C(C)N(Cc2ccccc2)C(=O)NC1c1ccccc1OS(=O)(=O)c1ccccc1[N+](=O)[O-] (centres undefined) | i | 0.84
CN1CCCC(n2nc(Cc3ccc(Cl)cc3)c3ccccc3c2=O)CC1 (centres undefined) | i | 0.77
CC1(OC(=O)c2cccs2)C(=O)C=C2C=C(c3ccsc3)OC=C2C1=O (centres undefined) | i | 0.78
Cc1ccc(Cn2c(C3CCCN3c3nc(-c4ccc(F)cc4)cs3)nc3cc(Cl)c(Cl)cc32)cc1 (centres undefined) | i | 0.94
COC(=O)[C@@](C)(O)C1(C(=O)SC(C)(C)C)CC1 | i | 1.08
CCOc1ccc(C2=CC(c3ccccc3)n3ncnc3N2)cc1 (centres undefined) | i | 1.1
Cc1cc(CNC(=O)C2(C(F)(F)F)C/C(=C\CCO)CCCO2)nn1C (centres undefined) | i | 0.74
CC1(C)Oc2cc3oc(-c4cc(O)cc(O)c4)cc3cc2CC1O (centres undefined) | i | 0.82
O=P(O)(CCCP(=O)(O)CCc1ccccc1)CCc1ccccc1 | i | 0.91
CN(C/C=C/C#CC(C)(C)C)Cc1cccc2ccccc12 | i | 0.89
COC(=O)C1=C(C(=O)OC)[N+]2=C3N(C(=O)NC2(C)C)[C@H](CO)C[C@@]32c3ccccc3N(Cc3ccccc3)[C@@H]12 | i | 0.8
CC1(C)S[C@@H]2[C@H](NC(=O)COc3ccccc3)C(=O)N2C1C(=O)OCc1ccccc1 (some centres undefined) | i | 0.86
COC(=O)[C@H]1C[C@H]1[C@@H](NC(=O)c1ccc[nH]1)c1ccccc1 | i | 0.91
CCCCCCCCCCCCN1[C@@H](CC(C)=O)c2cc(F)cc(F)c2S1(=O)=O | i | 0.93
CCOC(=O)C[C@H]1c2cc(F)ccc2S(=O)(=O)N1C1CCCC1 | i | 0.78
CC(C)CCNC(=O)C1CC(c2ccccc2[N+](=O)[O-])=NO1 (centres undefined) | i | 1.09
CCO[C@H]1OC(C(=O)NCc2nc3ccccc3[nH]2)=C[C@@H](c2ccc(Br)cc2)[C@@H]1CCCO | i | 0.81
CC1(C)S[C@@H]2C(C(=O)OCc3ccccc3)NC(=O)N2C1C(=O)OCc1ccccc1 (some centres undefined) | i | 0.91
O=C(NCc1cc(C(F)(F)F)cc(C(F)(F)F)c1)C1CC(c2ccccc2F)=NO1 (centres undefined) | i | 0.95
CC1=C(n2ccnc2)CCC1=O | i | 0.78
C[C@]12CCC[C@H](O1)c1c(cc3c(c1O)C(=O)c1c(O)cc(O)cc1C3=O)O2 | i | 1.27
COc1cc2sc3ccc(-c4ccc5[nH]ccc5c4)cc3c(=O)c2cc1OC | i | 0.77
COc1ccc(CNC(=O)c2ccc(N3CCC4(CC3)CC(c3ccc(Cl)cc3)=NO4)c([N+](=O)[O-])c2)cc1 | i | 0.99
CC(C)=CCc1c(-c2ccc(O)cc2O)oc2cc3c(c(O)c2c1=O)C=CC(C)(C)O3 | i | 1.02
CN(C)c1ccc(N2[C@@H](CC(=O)O)c3cc(C(F)(F)F)ccc3S2(=O)=O)cc1 | i | 0.98
COc1nc(-c2ccc(C)cc2)ccc1-c1noc(-c2cccnc2)n1 | i | 0.87
COc1cc(CNC(=O)c2ccc3c(c2)S(=O)(=O)c2ccccc2C3=O)cc(OC)c1 | i | 0.75
O=C(NCC1CC1)c1ccc2c3n(nc2c1)-c1ccc(Cl)cc1CO3 | i | 0.93
O=C1C[C@@H](c2ccccc2)Oc2cc(O)cc(O)c21 | i | 0.92
O=C1[C@H]2[C@H](C=CC[C@H]2C(=O)N2CCN(c3ccccc3)CC2)CCN1Cc1ccc(Cl)c(Cl)c1 | i | 0.74
(further entries)
SMILES | HSV augment | HSV augment primary fold
CC(=O)C[C@H]1c2cc(F)ccc2S(=O)(=O)N1c1ccc(N(C)C)cc1 | i | 0.88
O=C(NCC1CC1)c1onc(CSc2ccccc2)c1C(=O)NCC1CC1 | i | 1.02
COc1ccccc1CNC(=O)C1CC2Cn3c(nc4cc(Cl)c(Cl)cc43)C2N1C (centres undefined) | i | 0.79
O=C1N=C(O)CN1/N=C/c1ccc(-c2ccc([N+](=O)[O-])cc2)o1 | i | 0.73
CCCc1nnc(NC(=O)c2c(O)c3cccc4c3n(c2=O)CCC4)s1 | i | 1.08
COc1ccccc1NC(=O)CSc1ccc2nnc(-c3ccccn3)n2n1 | i | 0.97
CC1(C)C2CC[C@]3(C)C(CC=C4[C@@H]5C[C@@](C)(CO)CC[C@]5(C(=O)O)CC[C@]43C)[C@@]2(C)CC[C@@H]1O (some centres undefined) | i | 1.01
COc1cccc(N2[C@@H](CC(=O)O)c3cc(C(F)(F)F)ccc3S2(=O)=O)c1 | i | 1.15
COCOc1ccc(-c2cc(=O)c3c(O)cc(OCOC)cc3o2)cc1 | i | 1.02
OCCCn1c(CCNc2nc(-c3ccc(F)cc3)cs2)nc2cc(C(F)(F)F)ccc21 | i | 0.86
OCCNc1nc(Nc2ccccc2O)nc(N2CCCC2)n1 | i | 0.8
Nc1nc2c(ncn2CCC(CO)CO)c(=O)[nH]1 | i | 0.65
COC(=O)[C@H]1C[C@H]1[C@@H](NC(=O)c1cccnc1)c1ccccc1 | i | 0.88
CS(=O)(=O)c1ccc(CNC(=O)[C@]2(C(F)(F)F)C[C@H](CCc3ccccc3)CCCO2)cc1 | i | 0.84
C#CCOCCOCCOCCNc1nc(N2CCN(C(=O)C([C@@H](C)CC)n3cc(C(N)COC(=O)C(F)(F)F)nn3)CC2)nc(N2CCN(C(=O)[C@H](CCCCN)n3cc(C(N)[C@H](C)CC)nn3)CC2)n1 (some centres undefined) | i | 0.76
CCCC(=O)NC(C)c1nc(-c2ccc(C)cc2)no1 (centres undefined) | i | 0.85
COc1ccccc1C1=CC(=O)CCC1 | i | 0.81
CC1(c2nnc(-c3ccccc3)o2)CC(c2c(Cl)cccc2Cl)=NO1 (centres undefined) | i | 1.17
O=C(NCc1cccc(C(F)(F)F)c1)c1cc(-c2ccccc2)nn1CC1CC(c2cccnc2)=NO1 (centres undefined) | i | 1.07
CC1(c2nnc(-c3cccc(Cl)c3)o2)CC(c2cccc(Cl)c2)=NO1 (centres undefined) | i | 1.14
COc1ccc(-n2nnnc2Sc2ccc(S(=O)(=O)N3CCOCC3)cn2)cc1 | i | 0.82
CC1CN(c2nc3ccccc3nc2C(C#N)C(=O)NC2CCCCC2)CC(C)O1 (centres undefined) | i | 1.03
Cc1ccnc(SCCn2c(Br)nc3c2c(=O)[nH]c(=O)n3C)n1 | i | 0.88
C/C(=C\CNc1ncnc2nc[nH]c12)CO | i | 1.06
O=C(c1ccccc1)n1c(=S)nc2ccccn21 | i | 0.95
Cc1nc(N2CCN(S(=O)(=O)c3ccc(F)cc3)CC2)c2c(C)c(C)sc2n1 | i | 1.1
COC1=CC(=O)C(O)=C(CCCCCCC/C=C/CCCCCCCC2=C(O)C(=O)C=C(OC)C2=O)C1=O | i | 0.91
CCC(=O)NCCCc1nc(-c2ccccc2)no1 | i | 0.99
CC1=C(C(=O)OCC(Br)(Br)Br)C(c2cccc([N+](=O)[O-])c2)NC(=O)N1CCCC(=O)O (centres undefined) | i | 0.84
COCCNC(=O)c1ccc2c(c1)S(=O)(=O)c1ccccc1C2=O | i | 1.19
COC(=O)CCC(=O)OC1(C)C(=O)C=C2C=C(C3CC3)N(c3ccc(CO)cc3)C=C2C1=O (centres undefined) | i | 0.89
Cc1csc(NC(C)c2nc3cc(C(F)(F)F)ccc3n2CCCO)n1 (centres undefined) | i | 0.94
CC(=O)n1cc([C@@H]2C=C(C(=O)N3CCN(C)CC3)O[C@H](OCc3ccc(CO)cc3)C2)c2ccccc21 | i | 1.12
COc1ccccc1Nc1nc(NCCCCO)nc(N2CCCC2)n1 | i | 0.92
O=C1C=C(c2cc3ccccc3s2)CCC1 | i | 0.76
CCCCCCCCCCCCN1[C@@H](CC(=O)O)c2cc(C(F)(F)F)ccc2S1(=O)=O | i | 1.02
COc1ccc(Nc2nc(N3CCCCC3)nc(N3CCCCC3)n2)c(OC)c1 | i | 1.03
Cc1ccc(C2=NOC(c3nnc(-c4ccccc4)o3)C2)cc1 (centres undefined) | i | 0.7
COc1cccc2[nH]c3c(=O)n(CCN(C)C)cnc3c12 | i | 1.02
O=C(NCC1CC1)[C@]1(C(F)(F)F)C[C@H](CCC2CCCCC2)CCCO1 | i | 1.01
O=C(Nc1ccc(-c2ccccc2)cc1)c1ccc2c(c1)S(=O)(=O)c1ccccc1C2=O | i | 0.91
CCOC(=O)C1=C(COCCN)NC(C)=C(C(=O)OC)C1c1ccccc1Cl (centres undefined) | i | 0.76
COCCN1C(=O)N[C@@H](c2ccccc2)[C@H](C(=O)OC)[C@H]1C | i | 0.87
CSc1sc(C(=O)NN)c2c1C(O)CCC2 (centres undefined) | i | 0.69
OCCOCCn1c(C2CCCN2c2nc(-c3ccc(F)cc3)cs2)nc2cc(C(F)(F)F)ccc21 (centres undefined) | i | 0.98
COCCN1C(=O)N[C@@H](c2cccs2)C(C(C)=O)=C1C | i | 0.83

In the list so far, these contain a Cl atom.
SMILES | HSV augment | HSV augment primary fold
OCCNc1nc(Nc2ccccc2Cl)nc(N2CCCC2)n1 | i | 0.73
Cn1ccnc1-c1nnn(-c2ccc(Cl)c(Cl)c2)n1 | i | 1.21
CN1CCCC(n2nc(Cc3ccc(Cl)cc3)c3ccccc3c2=O)CC1 (centres undefined) | i | 0.77
Cc1ccc(Cn2c(C3CCCN3c3nc(-c4ccc(F)cc4)cs3)nc3cc(Cl)c(Cl)cc32)cc1 (centres undefined) | i | 0.94
COc1ccc(CNC(=O)c2ccc(N3CCC4(CC3)CC(c3ccc(Cl)cc3)=NO4)c([N+](=O)[O-])c2)cc1 | i | 0.99
O=C(NCC1CC1)c1ccc2c3n(nc2c1)-c1ccc(Cl)cc1CO3 | i | 0.93
O=C1[C@H]2[C@H](C=CC[C@H]2C(=O)N2CCN(c3ccccc3)CC2)CCN1Cc1ccc(Cl)c(Cl)c1 | i | 0.74
COc1ccccc1CNC(=O)C1CC2Cn3c(nc4cc(Cl)c(Cl)cc43)C2N1C (centres undefined) | i | 0.79
CC1(c2nnc(-c3ccccc3)o2)CC(c2c(Cl)cccc2Cl)=NO1 (centres undefined) | i | 1.17
CC1(c2nnc(-c3cccc(Cl)c3)o2)CC(c2cccc(Cl)c2)=NO1 (centres undefined) | i | 1.14
CCOC(=O)C1=C(COCCN)NC(C)=C(C(=O)OC)C1c1ccccc1Cl (centres undefined) | i | 0.76
